Screens from PubChem.
TRPML1 ag = activates the human TRPML1 channel | Q9GZU1 | TRPML1-expressing cells, Ca2+ dye fluorescence, FDSS; host cell line not named in the record; reference of the full effect not given here | activation, % (test concentration not listed) | 0.12% of 410,000 active | AID 624414; in the data active = activation above about 50%; inconclusive = about 30% to 50%; inactive = below about 30%; further: 0% is about no effect; the text of the record puts the active cut at 80%
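Calcium fluorescence on an FDSS kinetic reader gave the read-out. Tet-induced TRPML1-DL cells were plated overnight, dye-loaded (Ca8 with quencher, 45-90 min, room temperature, dark), then read 110 s after compound addition, and again 110 s after 4uM final 54-4 (EC80).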
D2 agonist = human D2 receptor agonism in beta-arrestin assay. DiscoveRx PathHunter D2 beta-arrestin, luminescence, 90 min; 100% = 57 uM dopamine signal. 0.084% of 360,000 active. P14416. activation, % (test concentration not listed); in the data active = activation above about 40%; inconclusive = about 15% to 40%; inactive = below about 15%; further: compound concentration not given in the record; the text of the record calls up to 30% inactive
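DiscoveRx PathHunter D2 beta-arrestin cells (2,100/well) attached overnight, then compound-stimulated 90 min at 37 C in HBSS/10 mM HEPES/0.1% Tween-20 buffer; beta-galactosidase complementation read by luminescence after 1 h at ambient temperature. Dopamine 57 uM final (EC100) as control.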
TRPML1 inh = blocks the human TRPML1 channel. Q9GZU1. 0.02% of 390,000 active. activity change, negative = inhibition, % (concentration not given with the values). TRPML1-inducible cells, Ca2+ dye fluorescence, FDSS; active compounds read low; inhibition of EC80 agonist-evoked calcium signal; in the data active means activity change below about -50%; inconclusive means about -30% to -50%; inactive means above about -30%;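 further: stimulus is agonist 54-4 at its EC80 concentration; on the % scale 0 is the no-effect control and ±100 the full control effect; the text of the record puts the active cut at -80%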
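TRPML1-DL cells, Tet-induced overnight (~16 h, 37 °C) at 1,500 cells/well, were loaded with Ca8 no-wash dye plus quencher for 45-90 min at room temperature. Compounds were pinned during FDSS kinetic reading; agonist 54-4 at EC80 (4 uM final) then added.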
Six1-Eya2 blk = Six1/Eya2 interaction inhibition; Q15475+O00167; AlphaScreen GST-Six1/His-Eya2 binding, biochemical; active compounds read low; control for the full effect not named in the record; activity change, % (concentration not given with the values); 0.56% of 360,000 active; AID 651725; in the data active = activity change below about -65%; inconclusive = about -30% to -65%; inactive = above about -30%; further: on the % scale 0 is the no-effect control and ±100 the full control effect
Target sequence (O00167 whole entry, looked up): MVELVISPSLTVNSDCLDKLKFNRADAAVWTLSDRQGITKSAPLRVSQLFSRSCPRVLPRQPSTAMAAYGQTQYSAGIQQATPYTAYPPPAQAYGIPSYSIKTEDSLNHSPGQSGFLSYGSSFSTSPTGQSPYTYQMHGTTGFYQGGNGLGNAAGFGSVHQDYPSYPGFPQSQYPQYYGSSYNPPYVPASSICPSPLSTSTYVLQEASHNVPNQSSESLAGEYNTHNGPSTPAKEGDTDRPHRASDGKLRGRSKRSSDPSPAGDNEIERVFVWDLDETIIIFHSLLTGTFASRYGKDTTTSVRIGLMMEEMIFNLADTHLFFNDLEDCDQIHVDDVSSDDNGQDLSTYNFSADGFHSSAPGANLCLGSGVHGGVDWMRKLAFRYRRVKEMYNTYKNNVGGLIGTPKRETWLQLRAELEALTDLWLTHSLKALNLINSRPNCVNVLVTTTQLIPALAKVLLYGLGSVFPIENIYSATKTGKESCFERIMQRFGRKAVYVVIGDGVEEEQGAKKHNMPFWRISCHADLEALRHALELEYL
Target sequence (Q15475 whole entry, looked up): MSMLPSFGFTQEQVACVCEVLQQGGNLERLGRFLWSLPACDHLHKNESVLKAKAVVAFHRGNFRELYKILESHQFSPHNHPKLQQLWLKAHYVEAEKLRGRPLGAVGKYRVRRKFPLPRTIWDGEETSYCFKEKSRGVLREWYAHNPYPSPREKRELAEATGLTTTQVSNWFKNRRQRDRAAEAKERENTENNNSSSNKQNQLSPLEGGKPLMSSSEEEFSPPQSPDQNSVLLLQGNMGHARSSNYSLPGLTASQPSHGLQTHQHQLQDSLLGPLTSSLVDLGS
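AlphaScreen luminescence read after one hour at 37 °C in darkness. Pin-transferred compounds met GST-Six1 and His-Eya2 protein (5X stock 250 nM/500 nM) plus glutathione donor and Ni-chelate acceptor beads (5X, 50 ug/mL).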
PINK1 modulator = changes PINK1 expression | 0.2% of 410,000 active | PINK1 immunofluorescence, high-content cytometry, 24 h | Potency, µM (series often up to 76.6 µM), inactives show top-dose activation (PINK1 increase), actives largely listed as activators; active = well fitted activation curve with a large enough effect; inconclusive = small, poorly fitted or top-dose-only effect; inactive = flat fitted curve, though single readings scatter; cell line not stated here;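 further: potency means the concentration at half of the fitted maximal effect; % of control where 0% means no effect; nearly all actives have a fitted effect of over 65% in size; a mitochondrial uncoupler was the plate control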
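Cells are seeded, rested 12 hours, then given compound at five concentrations or DMSO for 24 hours. After fixation, blocking and antibody staining, PINK1 amount and mitochondrial localization are scored; CCCP serves as control.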
CtBP-E1A blk = inhibitors of CtBP/E1A interaction | activity change, % (concentration not given with the values) | 0.49% of 340,000 active | AlphaScreen GST-E1A/His-CtBP binding, 1536-well; active compounds read low; control for the full effect not named in the record; in the data active means activity change below about -65%; inconclusive means about -30% to -65%; inactive means above about -30%; further: on the % scale 0 is the no-effect control and ±100 the full control effect
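AlphaScreen with 125 nM GST-E1A and 125 nM His-CtBP (5X stocks) in Tris pH 8.0, 300 mM NaCl, BSA, Tween 20, TCEP. Compounds preincubated 2 h at 37 deg C, then glutathione donor/nickel acceptor beads added for 1 h at 37 deg C in dark.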
The depositor's hits bear a star; ? = inconclusive; . = no result given; & = joins results of further samples; [ ] = another dose, or the depositor's remark.

SMILES	TRPML1 ag	D2 agonist	TRPML1 inh	Six1-Eya2 blk	PINK1 modulator	CtBP-E1A blk
Cc1ccc(S(=O)(=O)N(CC(O)Cn2c3ccccc3c3ccccc32)c2cccc(C(=O)NCCO)c2)cc1 (stereo unspecified)	1.5	.	-6	.	10.0%	.
CC(=O)NC(C(=O)c1ccccc1)C(=O)c1ccccc1	-0.2	-5.0	-19	-2	-0.8%	3
Cc1cc(Br)ccc1NC(=O)c1coc(=O)c2ccccc12	-0.7	.	0	.	2.1%	.
O=C(COc1ccc(Br)cc1)NCCN1CCCC1	0.3	-5.4	-16	8	-0.4%	-19
Cc1n[nH]c(C)c1NC(=O)CN1CCN(S(=O)(=O)c2ccc(C(F)(F)F)cc2)CC1	1.0	-1.4	26	3	0.6%	0
COc1ccc(NC(=O)CSc2cc(C)nc3c(-c4ccccc4)cnn23)cc1	-0.9	-1.8	-21	-1	14%	8
COc1ccc(-c2cc(C(F)(F)F)nc(SCC(=O)NCCc3ccccc3)n2)cc1	-0.1	.	28	.	4.9%	.
CCN(CC)S(=O)(=O)c1cccc(C(=O)Nc2nncs2)c1	0.0	-2.0	2	-6	10%[38.3 µM]	3
COC(=O)c1ccc(-c2ccco2)n1Cc1ccccc1Cl	1.6	-2.2	5	-16	4.2%	-22
CCOc1ccccc1C(=O)NCc1ccc2c(c1)CCN2C(C)=O	1.1	.	2	.	9.7%	.
CCN(CC)c1nc(-c2ccccc2Cl)c2cc(Br)ccc2n1	1.2	.	-6	.	0.2%	.
C/C(=N\Nc1cccc(Cl)c1)c1ccc(-n2ccnc2)cc1	-0.4	4.3	13	-8	-1.6%	7
COc1ccc(-c2nc(C#N)c(NCc3ccco3)o2)cc1	-1.6	-1.3	11	-18	4.3%	.
CCOc1ccc(-c2nc(C)c(C(C)=O)n2O)cc1	0.3	-3.3	-7	0	3.5%[38.3 µM]	-1
COC(=O)c1ccc(NC(=S)N2CCN(CCO)CC2)cc1	-0.6	0.5	15	10	1.1%	.

3 structures from above, ordered by SMILES length, smallest number first.
SMILES	TRPML1 ag	D2 agonist	TRPML1 inh	Six1-Eya2 blk	PINK1 modulator	CtBP-E1A blk
O=C(COc1ccc(Br)cc1)NCCN1CCCC1	0.3	-5.4	-16	8	-0.4%	-19
COc1ccc(-c2nc(C#N)c(NCc3ccco3)o2)cc1	-1.6	-1.3	11	-18	4.3%	.
C/C(=N\Nc1cccc(Cl)c1)c1ccc(-n2ccnc2)cc1	-0.4	4.3	13	-8	-1.6%	7

Next structures.
SMILES	TRPML1 ag	D2 agonist	TRPML1 inh	Six1-Eya2 blk	PINK1 modulator	CtBP-E1A blk
O=C(CSc1ccc2c(c1)OCCO2)NCC1CCCO1 (stereo unspecified)	0.4	-2.7	-3	2	2.0%	4
Cc1cc(NC(=O)CCC(=O)N(CC2CCCO2)C(C(=O)NC2CCCC2)c2ccccc2C)no1 (stereo unspecified)	-0.5	-2.0	-1	0	-0.3%	0
COc1ccc(-c2cc(-c3ccccc3)nc3c2COc2ccc(F)cc2-3)cc1	-0.2	.	2	.	4.0%	.
CCCCC(=O)Nc1ccc(NC(=O)c2ccccc2[N+](=O)[O-])cc1OC	1.1	-0.1	-7	4	-0.5%	-4
CSc1ccc(CCNC(=O)c2ccc3c(c2)nc2n3CCC(C)C2)cc1 (stereo unspecified)	2.1	.	3	.	1.8%	.
Cc1c(OCC(=O)NCCCN2CCOCC2)ccc2c3c(c(=O)oc12)CCCC3	-0.6	-5.0	15	-8	1.1%	-12
O=C(CSc1nnc(N2CCCC2)n1-c1ccccc1Cl)N1CCN(c2ccccn2)CC1	0.3	-3.0	-9	-7	-1.3%	2
C/C(CC(=O)Nc1ccccc1Cl)=N\NC(=O)C(=O)NCCO	3.0	-12	0	-6	-1.3%	9
CCCCN(C)CCC(=O)Nc1ccc(C)cc1	-0.5	-0.7	-3	5	-0.2%	-9
Cc1cc(Cl)c2oc(C(=O)NCCN3CCCCC3CO)c(C)c2c1 (stereo unspecified)	1.1	5.7	25	-1	-2.0%	1
COc1ccc(/C=C/C(=O)NCc2cccnc2)cc1	0.3	-0.4	-4	0	-0.9%	7
O=C(CCN1C(=O)C2C3CC(C(Br)C3Br)C2C1=O)OCC(=O)c1cccc([N+](=O)[O-])c1 (stereo unspecified)	0.6	-3.8	-6	4	-0.8%	14
COc1cc2[nH]c(=S)nc(NCCCOC(C)C)c2cc1OC	-0.8	-2.9	-5	-86*	-0.3%	-93*
CCC(C)N(C(=O)CSc1nnc(-c2cccs2)n1C1CC1)C1CCS(=O)(=O)C1 (stereo unspecified)	-0.2	-1.5	8	-6	-2.3%	1
COc1ccccc1NC(=O)N1CCC(c2nc3ccccc3o2)CC1	5.1	-4.2	-22	-3	2.2%	-11
COc1ccc(-c2nnn(CC(=O)c3ccccc3)n2)cc1OC	-0.1	0.0	-3	0	.	12
Fc1ccccc1C1=NC(c2ccc(C(F)(F)F)cc2)=Nc2ccccc2N1	2.2	.	-13	.	12%	.
Cc1ccc(-c2nc(CNC(=O)c3cc(C)on3)cs2)cc1	-0.1	-1.0	0	0	-0.7%	6
CCn1c(CSCc2ccc(Cl)cc2)nnc1SCC(=O)Nc1cccc(C(=O)O)c1	-0.2	11	30	-8	-1.9%	0
CSc1ccc(CNC(=O)CCc2c(C)nn(-c3ccc(N4CCCC4)nn3)c2C)cc1	-0.9	.	-3	.	2.9%	.
COc1ccc(C2CC(c3ccccc3)=NN2C(=O)COC(=O)c2cccnc2Cl)cc1 (stereo unspecified)	1.3	-1.7	18	-2	-1.7%	16
O=C(COc1ccccc1)N(Cc1cccc(F)c1)C1CCS(=O)(=O)C1 (stereo unspecified)	-1.0	-1.8	-3	8	-1.3%	.
Cc1c(C=O)c2ccccn2c1C(=O)c1cccc([N+](=O)[O-])c1	0.8	3.0	-4	4	1.4%	.
Cc1cccc(Nc2nc(N)c([N+](=O)[O-])c(N3CCCC(C)C3)n2)c1 (stereo unspecified)	5.0	-8.3	-8	-20	-0.4%	-20
O=C1CC(c2ccccc2)C(=O)N2C(=O)CC(c3ccccc3)C(=O)N12 (stereo unspecified)	-0.5	0.6	0	4	0.4%	0
COc1ccc(CCN(C(=O)Cn2nnc3ccccc32)C(C(=O)NCC2CCCO2)c2ccncc2)cc1OC (stereo unspecified)	0.1	-0.2	-12	-15	0.1%	6
Cc1ccc(NC(=O)C2CCCN(S(=O)(=O)c3ccc4c(c3)oc(=O)n4C)C2)nc1 (stereo unspecified)	-0.7	0.3	-11	1	0.1%	0
CSC(=S)N/N=C/c1ccc(N(C)C)cc1	-0.1	14	-4	-6	2.1%	-5
Cc1ccc(N2CCN(S(=O)(=O)c3ccc(C)cc3)CC2)cc1	0.3	1.1	2	-18	10%	5
CN(C)CCNC(=O)/C(=C/c1ccc(-c2cccc(Cl)c2)o1)NC(=O)c1ccccc1	-0.1	-0.4	8	1	7.8%	1
CCOC(=O)c1ccc(-c2ccc(/C=C(\C#N)C(=O)NCC3CCCO3)o2)cc1 (stereo unspecified)	1.2	8.0	-18	7	?	4
O=C(NCCN1C(=O)S/C(=C/c2ccccc2)C1=O)C1CCCN1C(=O)c1cccs1 (stereo unspecified)	-0.9	-5.3	-19	-12	5.1%	-7
CCOc1ccc(N2CC(O)(c3cccs3)[N+]3=C2CCCC3)cc1 (stereo unspecified)	0.9	-5.1	-18	8	0.2%	2
COc1ccc(C2CC(c3cccs3)=NN2C(=O)CSc2nnnn2C)cc1OC (stereo unspecified)	1.6	-2.9	3	-2	1.5%	.
Cc1c(-c2ccccc2)n(-c2ccccc2O)c2nc3c(c(=O)n(C)c(=O)n3C)n12	1.6	.	-9	.	1.7%	.
CC(C(=O)N1CCN(c2ccccc2)CC1)N1C(=O)C2CC=CCC2C1=O (stereo unspecified)	-0.5	0.4	-6	3	-2.7%	4
CCOCCCn1c(SCC(=O)Nc2ccc(F)cc2)nc2c(sc3ccccc32)c1=O	-0.1	.	6	.	1.5%	.
CC(=O)Nc1cc(C(=O)c2ccccc2)ccc1N1CCOCC1	0.4	-3.7	84	7	-0.7%	8
CC(=O)c1cccc(NC(=O)C2Cc3c(-c4cccc(F)c4)ccnc3O2)c1 (stereo unspecified)	0.1	2.0	.	4	0.6%	-4
O=Nc1onc(-c2ccc([N+](=O)[O-])cc2)c1NO	-1.7	14	10	-11	-1.3%	-1
CCc1cccc(C)c1NS(=O)(=O)c1ccc(-n2cccn2)cc1	0.2	.	7	.	-0.1%	.
CC(=O)Oc1ccc2c(c1)C(=O)c1ccccc1CO2	0.8	2.0	-2	3	0.6%	-2
N#CCCN(C(=O)COc1ccc(C#N)cc1)c1ccc(F)cc1	0.0	-0.8	-1	1	-1.1%	10
O=C(c1ccc(F)cc1)n1nc(-c2ccccc2)nc1NCc1ccco1	2.1	.	-18	.	0.4%	.
CC(=O)c1ccc(NC(=O)c2ccc3c(=O)n4c(nc3c2)CCCCC4)cc1	-0.8	5.7	14	-7	1.7%	-22

Exported with values under each structure: 3 of the compounds above.
Values run as follows: TRPML1 ag, D2 agonist, TRPML1 inh, Six1-Eya2 blk, PINK1 modulator, CtBP-E1A blk
O=Nc1onc(-c2ccc([N+](=O)[O-])cc2)c1NO
 : -1.7, 14, 10, -11, -1.3%, -1
CCc1cccc(C)c1NS(=O)(=O)c1ccc(-n2cccn2)cc1
 : 0.2, ., 7, ., -0.1%, .
CC(=O)Oc1ccc2c(c1)C(=O)c1ccccc1CO2
 : 0.8, 2.0, -2, 3, 0.6%, -2

(next part)
SMILES	TRPML1 ag	D2 agonist	TRPML1 inh	Six1-Eya2 blk	PINK1 modulator	CtBP-E1A blk
COCCn1nnnc1C(c1ccccc1OC)N1CCN(C(=O)c2ccco2)CC1 (stereo unspecified)	1.9	2.2	22	11	0.3%	-8
CCc1ccc(NS(=O)(=O)c2ccc3[nH]cc(C(=O)N(C)Cc4ccco4)c(=O)c3c2)cc1	1.8&1.6	0.2	-6&-16	-19	1.2%	20
C=CCOc1ccccc1CNn1c(C)n[nH]c1=S	-0.7	-6.4	7	1	-1.8%	1
CCOC(=O)c1c(S(=O)(=O)NCCc2ccco2)c(C)n(C)c1C	-1.1	-1.1	3	-5	0.7%	-5
Cc1ccc(CNC(=O)c2ccc(Cn3c(=O)c4ccccc4n(CC(=O)Nc4ccc(C)cc4)c3=O)cc2)cc1	-0.1	.	10	.	3.4%	.
CCOC(=O)c1cnc2c(C(=O)OC)cccc2c1NCc1ccco1	4.4	1.4	32	-7	4.0%[38.3 µM]	7
Cn1cccc1CC(=O)NNC(=O)Nc1ccc(F)cc1	0.4	0.6	16	5	0.7%	.
O=C(NCCc1ccccc1)C1CCC(CNS(=O)(=O)c2ccc(Cl)cc2)CC1 (stereo unspecified)	1.1	.	-12	.	-0.5%	.
O=C(N/N=C/c1cc(Cl)ccc1O)c1ccccc1Br	2.6	-4.2	32	-70*	0.1%	-90*
Cc1cc(NC(=O)COC(=O)C2COc3ccccc3O2)no1 (stereo unspecified)	0.1	-5.1	6	5	0.8%	2
CCN1C(=O)NC2C1N(S(C)(=O)=O)CCN2S(C)(=O)=O (stereo unspecified)	-0.6	-4.2	-6	21	-1.1%	32
COc1ccc(-c2csc(NC(=O)Cc3cccc4ccccc34)c2C(=O)O)cc1	0.3	-1.8	-3	-67*	0.3%	-67*
